# Bioassay records: PubChem BioAssay, National Center for Advancing Translational Sciences (NCATS)
# GLA inh pH 4.5 – blocks human alpha-galactosidase A at pH 4.5; 230,000 tested, under 10 active; purified enzyme, 4-MU-alpha-Gal fluorescence, pH 4.5; activity change, negative = inhibition, % at 105 µM; AID 1467; P06280; inconclusive = small, poorly fitted or top-dose-only inhibition, or a rising curve; inactive = flat fitted curve, though single readings scatter; no compound was filed as active;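 also: 0% = full activity with enzyme and -100% = basal without enzyme; dose as in the result columns while the protocol names 77 µM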
# miR-21 reporter – miR-21 reporter, rising signal | Potency, µM (titrated, usually from 38.3 µM), without a hit: at the highest dose reporter change, positive = more light | 340,000 tested, under 10 active | HeLa miR-21 FLuc reporter, luciferase, 48 h | AID 2288; active = well fitted rising curve with a large enough effect; inconclusive = small, poorly fitted or top-dose-only effect; inactive = no such curve, though single readings can be large or run the other way;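 also: % of control where 0% means no effect; miR-21 action dims this reporter so a rising signal means less miR-21 action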
#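 HeLa cells endogenously expressing miR-21, stably carrying CMV-driven firefly luciferase with a downstream miR-21 binding site, 2000 cells/well. Titrations up to approximately 40 uM, 48 hours; luciferase luminescence read.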
# Rango release inh – prevents RanGTP from dissociating the Rango-importin beta complex; O95149+P62826; Biochemical FRET Rango-importin beta, RanGTP-induced dissociation; Potency, µM (series often up to 46.1 µM), for the others: at the top dose activity change, negative = inhibition; hit rate 0.071% among 340,000; AID 540253; active means falling FRET ratio curve, often poorly fitted, with flat reads before Ran was added; inconclusive means other falling curves, or compound fluorescence or quenching; inactive means flat or rising ratio curve;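 also: potency is read from the fitted curve at half-maximal effect; % of control where 0% means no effect; nearly all actives have a fitted effect of over 45% in size; -100% = wells without RanGTP and RCC1; the record marks most hits as doubtful in a second field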
#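 Two FRET readings bracket the reaction: one 5 min after compound meets Rango–importin beta, another 45 min after RanGTP-RCC1 (0.6 uM Ran, 0.2 uM RCC1, 2 mM GTP) is added. Only the second defines inhibition.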
# Rango complex inh – prevents formation of the Rango-importin beta complex; Q14974; Rango CFP/YFP FRET sensor + importin beta, 45 min; Potency, µM (series often up to 92.2 µM), without a hit: at the highest dose inhibition of complex formation; hit rate 0.031% among 340,000; active = rising FRET ratio curve, often small or poorly fitted; inconclusive = mostly compound fluorescence or quenching in the first reads; inactive = flat curves in all reads;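 also: potency is read from the fitted curve at half-maximal effect; 0% = DMSO wells and 100% = buffer wells lacking importin beta; nearly all actives have a fitted effect of over 15% in size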
# Target sequence (Q14974 whole entry, looked up): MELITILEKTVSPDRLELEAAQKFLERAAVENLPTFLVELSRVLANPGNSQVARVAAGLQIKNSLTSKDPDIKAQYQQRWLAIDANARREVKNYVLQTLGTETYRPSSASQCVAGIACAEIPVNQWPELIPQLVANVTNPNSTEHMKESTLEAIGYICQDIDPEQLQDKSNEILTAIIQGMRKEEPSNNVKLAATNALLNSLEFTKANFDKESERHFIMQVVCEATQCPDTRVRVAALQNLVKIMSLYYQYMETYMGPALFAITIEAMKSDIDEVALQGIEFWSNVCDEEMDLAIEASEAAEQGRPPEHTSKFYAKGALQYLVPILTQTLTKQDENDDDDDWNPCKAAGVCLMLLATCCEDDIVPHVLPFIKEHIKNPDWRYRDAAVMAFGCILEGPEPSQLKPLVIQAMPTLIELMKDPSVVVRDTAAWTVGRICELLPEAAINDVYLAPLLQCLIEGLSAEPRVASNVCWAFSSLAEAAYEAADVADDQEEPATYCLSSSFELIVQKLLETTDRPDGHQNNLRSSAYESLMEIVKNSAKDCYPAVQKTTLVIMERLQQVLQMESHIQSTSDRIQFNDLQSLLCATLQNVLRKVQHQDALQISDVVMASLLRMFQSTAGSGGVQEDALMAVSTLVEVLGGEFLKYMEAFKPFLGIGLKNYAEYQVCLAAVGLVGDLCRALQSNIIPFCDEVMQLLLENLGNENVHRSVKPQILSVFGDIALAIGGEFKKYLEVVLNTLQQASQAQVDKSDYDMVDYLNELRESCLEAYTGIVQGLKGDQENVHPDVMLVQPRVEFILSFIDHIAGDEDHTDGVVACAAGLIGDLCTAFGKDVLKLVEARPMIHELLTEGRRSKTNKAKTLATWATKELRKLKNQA
#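 FRET biosensor (snurportin 1 IBB flanked by EYFP and cerulean), 50 nM, with compound 5 min, then 0.125 microM importin beta in PBS, 1 mM DTT, 0.02% Tween-20, 0.1% BSA. CFP/YFP ratio read after 45 min at room temperature; pre-read flags interference.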
# An asterisk follows results filed as active; ? = inconclusive; / = no result given; & = joins results of further samples. An excerpt. The share of hits here may be higher or lower than overall.
GLA inh pH 4.5	miR-21 reporter	Rango release inh	Rango complex inh	smiles
-10	1%	?	?	Cn1cc(C(c2ccccn2)c2cn(C)c3ccccc23)c2ccccc21
/	-7%	-10%	0.1%	CN(CC(=O)Nc1ncn[nH]1)S(=O)(=O)c1cc(Cl)ccc1Cl
/	/	8%	0.2%	O=C1Nc2cc(Cl)ccc2Nc2cscc21
-3	-8%	-3%	-1.9%	CCC(C)N(C(=O)Cn1nnc2ccccc21)C(C(=O)NCc1ccco1)c1cccc(OC)c1 (configuration not stated)
0	-4%	1%	5.6%	CCCCCN(C(=O)NC(=O)Nc1cccc(C)c1C)S(C)(=O)=O
-5	6%	-14%	2.2%	O=C(CSc1n[nH]c(-c2ccco2)n1)Nc1sc2c(c1C(=O)Nc1ccccc1)CCCC2
/	1%	7%	0.0%	CN1CCc2c(OCC(=O)NC3CCCCC3)cccc2C1=O
/	-2%	5%	1.4%	CCOc1ccc(N2C(=O)Nc3ccc(Br)cc3C2(O)C(=O)NCCN(C)C)cc1 (configuration not stated)
/	-17%	-2%	1.2%	Cc1cc(OCc2cc(C(=O)N3CCN(CC4CC4)CC3)no2)cc(C)c1Cl
3	10%	-1%	-0.3%	CC(=O)Nc1ccc(C(=O)OCC(=O)Nc2ccc([N+](=O)[O-])cc2C(F)(F)F)cc1
/	1%	-13%	-1.8%	CCOC(=O)c1cc(C(=O)OCC)c(=O)[nH]c1SCc1ccccc1
/	0%	-9%	-0.3%	S=c1[nH]nc(COc2ccccc2)n1/N=C/c1ccc(Cl)cc1
/	10%	-5%	-0.5%	CC(=O)N1CCc2cc(S(=O)(=O)NC3CCCCC3)ccc21
7	-6%	-2%	-1.2%	CCS(=O)(=O)N1CCC(C(=O)NCCCN2CCN(c3ccccc3F)CC2)CC1
/	-3%	-3%	-2.6%	CC(C)Cc1nnc(NC(=O)CN2C(=O)NC3(CCCCC3)C2=O)s1
/	/	0%	-0.9%	O=C1N[C@@H](Cc2ccccc2)C(=O)N2[C@H]1C[C@]1([C@]34C[C@H]5C(=O)N[C@@H](Cc6ccccc6)C(=O)N5[C@H]3N(S(=O)(=O)c3ccccc3)c3ccccc34)c3ccccc3N(S(=O)(=O)c3ccccc3)[C@H]21
14	-1%	6%	-3.1%	CC1(C)CC(=O)C2=C(C1)Oc1ncn(CCCO)c(=N)c1C2c1ccccc1 (configuration not stated)
-1	1%	10%	2.9%	CCOC(=O)C1=C(C)N=C2SCCC(=O)N2C1c1ccc(C(=O)OC)cc1 (configuration not stated)
/	-44%	-1%	4.4%	O=C(Nc1nccs1)c1ccc(-c2ccc(F)c(Cl)c2)o1
/	0%	-10%	0.5%	O=C(O)Cn1c(SCCOc2ccc(Cl)cc2)nc2ccccc21
-3	-17%	0%	-0.5%	Cc1ccc2nc(-c3ccccc3)cc(C(=O)O)c2c1
/	/	20%	-1.1%	CC(Sc1nccn1C)C(=O)Nc1ccc(Cl)cn1 (configuration not stated)
/	-1%	-8%	0.5%	COC(=O)c1cc(S(=O)(=O)NCc2cccc(Br)c2)c[nH]1
2	-5%	-5%	-0.8%	CC(C)Oc1ccc(OCCn2c(=S)[nH]c3c(N)ncnc32)cc1
/	/	-11%	-1.1%	CCN(Cc1ccncc1)C(=O)c1cccc(S(=O)(=O)N2CCCCC2)c1
-30	0%	15%	-1.3%	C/C=C/C(=O)OCC(=O)Nc1cccc(S(=O)(=O)NC2=NCCCCC2)c1
5	-37%	-2%	1.5%	COC(=O)CNC(=O)CCc1nnc(C2(c3ccc(Cl)cc3)CCC2)o1
/	0%	2%	-4.1%	CCN1C(=O)[C@H]2[C@@H](c3ccc(OC)cc3)N3C(=O)CN(CCOC)C(=O)[C@@]3(C)[C@H]2C1=O
0	0%	5%	0.4%	Cc1ccc(-n2c(Cc3cccn3C)nnc2SCC(=O)Nc2nnc(C)s2)cc1
/	-1%	11%	-1.7%	COC(=O)CN1CC(=O)N(c2ccccc2)C1=S
-8	-46%	-9%	-2.7%	COc1ccc(Nc2cc(Cl)nc(N)n2)cc1
/	/	9%	-15%	COc1ccc([C@@H]2CC=C(C(=O)O)[C@H](c3ccc(F)cc3)N2S(=O)(=O)c2ccccc2C)cc1
-9	-4%	1%	1.0%	CCOC(=O)c1c(NC(=O)CCN2CCOCC2)sc2c1CC(C)(C)OC2
3	19%	-13%	-1.6%	CCOC(=O)Nc1ccc2c(c1)N(C(=O)OC)c1ccccc1CC2
-1	-5%	-3%	3.3%	CCCC(CCC)n1[nH]c(=O)c2c(C)cc(C)nc21
-6	-1%	-15%	-3.4%	C=CCn1c(CNC(=O)c2ccco2)nnc1SCC(=O)c1ccc(OC)cc1
-1	-1%	-14%	-2.3%	CCCN(CCC)C(=O)c1cc([N+](=O)[O-])cc2c1-c1ccc([N+](=O)[O-])cc1C2=C(C#N)C#N
-5	-3%	0%	-0.7%	COc1ccc(C)cc1N(C(=O)c1ccccc1F)c1nc2ccccc2s1
/	0%	13%	3.2%	CCn1c(=O)c(C(=O)NCCc2ccc(Cl)cc2)c(O)c2ccccc21
-8	-6%	-18%	2.2%	CC(=O)Nc1ccc(-n2cnnn2)cc1
/	/	1%	4.9%	CCCCOC(=O)c1ccc(NC(=O)COC(=O)CN2C(=O)NC3(CCCC3)C2=O)cc1
/	/	1%	-1.2%	CC(C)(C)NC(=O)C[C@H]1C[C@H](C(=O)N2CCOCC2)[C@@]2(C)c3[nH]c4cc(-c5ccco5)ccc4c3CCN2C1=O
8	-6%	-5%	3.7%	Cc1ccc(SCc2noc(C(=O)NCC3CCCO3)c2C(=O)O)cc1C (configuration not stated)
?	-7%	-4%	2.0%	COc1cc(C(=O)Nc2cc(-c3cn4cccnc4n3)ccc2C)cc(OC)c1OC
/	/	-9%	2.0%	Cc1ccc(CN2C(=O)COc3cc(NS(C)(=O)=O)ccc32)cc1
/	/	6%	-3.3%	CCC(=O)NC(c1cc(Cl)c2ccccc2c1O)C1CC1 (configuration not stated)
6	-2%	/	/	O=[N+]([O-])c1cccc(N=Cc2sc3ccccc3c2O)c1
0	-35%	13%	-0.1%	Nc1[nH]n(-c2ccccc2)c(=O)c1N=Nc1ccc2c(c1)OCO2
/	27%	4%	-6.6%	COc1cc(CNc2ccc(N3CCOCC3)cc2)ccc1OCC(=O)NC(C)(C)C
/	/	0%	-2.6%	COc1cc2c(cc1OC)CN(C(=O)CSc1ccccc1C)CC2
/	/	-5%	1.7%	Cc1ccc(S(=O)(=O)N2CCC(C(=O)OCCOc3ccccc3)CC2)cc1C
4	0%	1%	-1.4%	NC(=O)CC(NC(=O)Cc1cccc2ccccc12)c1ccc(NCCc2cccc(F)c2)c([N+](=O)[O-])c1 (configuration not stated)
/	-20%	-5%	-2.5%	O=C(NCCCCc1ccccc1)c1cccc(Br)c1
/	/	-2%	-2.5%	COC(C/C=C\C(=O)[C@H](C)OCc1ccccc1)OC
14	-24%	10%	-0.5%	CC(=O)c1c(C)[nH]c(C(=O)OCC(=O)N2CCc3ccccc32)c1C
/	-1%	1%	-1.7%	Nc1nonc1-n1nnc(C(=O)N/N=C/c2ccccn2)c1-c1ccccc1
-5	-6%	7%	0.4%	COCCOC(=O)c1c(C)oc2ccc(NS(=O)(=O)c3ccc(F)cc3)cc12
/	/	-3%	?	COc1ccc(C(=O)COC(=O)c2cccc(-n3cnnn3)c2)c(OC)c1
/	/	-2%	2.0%	N#Cc1cc([N+](=O)[O-])ccc1NC(=O)CSc1n[nH]c(=O)[nH]c1=O
-7	-4%	8%	2.5%	CCN(CCCNC(=O)CCNC(=O)Cn1cnc2ccccc2c1=O)c1ccccc1

# (list continues)
GLA inh pH 4.5	miR-21 reporter	Rango release inh	Rango complex inh	smiles
4	-4%	-2%	1.7%	CCOc1cc(C)ccc1OCc1nnc(SCC(=O)c2cccc([N+](=O)[O-])c2)n1CC
4	-51%	17%	-1.1%	O=C(Nc1ccccc1C(F)(F)F)c1cc2ncc(CCCl)cn2n1
-2	0%	3%	5.7%	O=C(N/N=C/c1cccnc1)c1ccccc1NS(=O)(=O)c1cccs1
-13	-45%	1%	0.4%	Cc1ccc(C(=O)NCCSc2snnc2C)cc1
/	-16%	-10%	1.6%	CN(c1ccccc1)c1nc(N)c([N+](=O)[O-])c(Nc2ccccc2F)n1
3	2%	-6%	-0.4%	CC(=O)c1sc(N/N=C2\CC3CCC2(C)C3(C)C)nc1C (configuration not stated)
-1	-4%	-24%	?	O=C(CSc1nnc(-c2ccco2)c(-c2ccco2)n1)c1ccccc1
4	1%	2%	-3.0%	O=S(=O)(Nn1cnnc1)c1ccccc1
-9	-9%	-1%	0.0%	COc1ccccc1N1CCN(CC(O)COc2ccc3c(c2)OCO3)CC1 (configuration not stated)
?	-8%	?	?	Cc1cc(=O)oc2c(CN3CCN(C)CC3)c(O)c(Cl)cc12
/	/	-25%	3.0%	O=C(NC1CCCC1)c1cccc(S(=O)(=O)Nc2ccccc2F)c1
/	1%	-21%	1.3%	Cc1ccc(NC(=O)c2ccc(NS(=O)(=O)/C=C/c3ccccc3)cc2)nc1
/	/	26µM*	?	Cc1cc(C)c2nc(N3C(=O)C(O)=C(C(=O)c4ccco4)C3c3ccc(O)cc3)sc2c1 (configuration not stated)
/	0%	5%	-3.9%	CCCN(C(=O)CSCC(=O)Nc1cccc(C)c1)c1c(N)n(Cc2ccccc2)c(=O)[nH]c1=O
-3	6%	1%	1.2%	Cc1ccccc1C(=O)N1CCC(C(=O)N2CCN(S(=O)(=O)c3ccccc3F)CC2)CC1
2	-23%	-15%	-2.7%	CC(C)(C)SCCNC(=O)c1ccc(Cl)c([N+](=O)[O-])c1
/	0%&9%	?	-0.2%	CCN(c1ccc(OC)cc1)S(=O)(=O)c1nnc(NC(=O)COc2ccc(F)cc2)s1
-5	27%	-7%	0.3%	O=C(NCCc1c[nH]c2ccccc12)C(=O)NCC1OCCN1S(=O)(=O)c1ccc(Cl)cc1 (configuration not stated)
-4	-53%	-2%	?	Cc1c(/N=C(\[O-])Nc2ccc(Br)cc2)sn[n+]1C
5	-17%	16%	-1.8%	Fc1ccccc1/C=N/Nc1ncnc2ccccc12
5	0%	-12%	-2.8%	COc1ccc(N(CC(=O)Nc2cc([N+](=O)[O-])ccc2C)S(C)(=O)=O)cc1OC
/	/	4%	3.1%	CN(CC(=O)Nc1ccc(Cl)c(C(F)(F)F)c1)C(=O)CCN1C(=O)C2CC=CCC2C1=O (configuration not stated)
-12	-8%	22%	-0.1%	CC(=O)NC(Cc1ccc(C)cc1)C(=O)NC1CCN(c2ncccc2[N+](=O)[O-])CC1 (configuration not stated)
2	6%	-18%	-0.6%	CCn1c(=O)cc(SCC(=O)N(C)Cc2ccccc2)c2ccccc21
-16	0%	1%	2.8%	COc1cc(/C=C/C(=O)OCC(=O)NC(=O)NC(C)(C)C)ccc1OCC#N
-1	-6%	-12%	?	COC(=O)c1ccc(C(c2c(N)n(CC(C)C)c(=O)[nH]c2=O)N2CCN(c3ccccc3)CC2)cc1 (configuration not stated)
/	-3%&-5%	10%	-0.2%	Cn1c(=O)oc2cc(S(=O)(=O)Nc3ccc(O)cc3)ccc21
2	-3%	0%	0.2%	O=C(NCCCN1CCc2ccccc2C1)C1CCN(S(=O)(=O)N2CCCC2)CC1
/	-45%	13%	0.8%	COc1cccc(C2Nc3ccccc3C(=O)N2c2ccc(F)cc2)c1O (configuration not stated)
/	/	-5%	0.9%	C/C=C(/C)C(=O)O[C@@H]1c2c(ccc3ccc(=O)oc23)OC(C)(C)[C@@H]1OC(C)=O
-7	0%	2%	0.9%	O=C(CCS(=O)(=O)c1ccccc1)NCCS(=O)(=O)c1ccccc1

# Full records, looked up by structure. Screens in order: GLA inh pH 4.5, miR-21 reporter, Rango release inh, Rango complex inh
# Cn1c(=O)oc2cc(S(=O)(=O)Nc3ccc(O)cc3)ccc21 is listed as /, -3%&-5%, 10%, -0.2%
# CCCN(C(=O)CSCC(=O)Nc1cccc(C)c1)c1c(N)n(Cc2ccccc2)c(=O)[nH]c1=O is listed as /, 0%, 5%, -3.9%
